Screens as filed in PubChem.
StopGo RLuc – FMDV 2A StopGo reporter, Renilla signal; HEK cells with a luciferase reporter of 2A StopGo recoding; Potency, µM (series often up to 57.5 µM), for inactives: at the highest dose signal change, negative = less light; hit rate 0.32% among 120,000; AID 1745857; active means well fitted falling curve with a large enough effect; inconclusive means small, poorly fitted or top-dose-only effect; inactive means no such curve, though single readings can be large or run the other way; further: nearly all actives have a fitted effect of over 55% in size; overnight with compound
StopGo FLuc – FMDV 2A StopGo reporter, firefly signal. HEK cells with a luciferase reporter of 2A StopGo recoding. Potency, µM (series often up to 57.5 µM), without a hit: at the top dose signal change, negative = less light. hit rate 0.23% among 120,000; active = well fitted falling curve with a large enough effect; inconclusive = small, poorly fitted or top-dose-only effect; inactive = no such curve, though single readings can be large or run the other way; further: nearly all actives have a fitted effect of over 60% in size; overnight with compound
Active calls of the source: *; u = inconclusive; [ ] = remark or other dose. On the % scale 0 is the no-effect control and ±100 the full control effect; potency means the concentration at half of the fitted maximal effect. The list is partial; rates above refer to the full screens.

SMILES	StopGo RLuc	StopGo FLuc
Cc1cc(C)n(-c2ccc(C(=O)OCC(=O)NC(=O)NC3CCCCC3)cc2)n1	-11.9%	-5.8%
CCC1CCC2(CC1)NC(=O)N(Cc1coc(-c3cccs3)n1)C2=O (stereo unspecified)	-2.7%	13.9%
CCC(C(=O)NCCc1ccc(Cl)cc1)n1ccc2cc(S(=O)(=O)N3CCCCC3)ccc21 (stereo unspecified)	169.3%[activator]	-19.8%
O=C1CC(c2ccc(F)c(F)c2)c2cc(Br)c3ccccc3c2N1 (stereo unspecified)	-3.0%	3.9%
O=c1[nH]c(=O)n(Cc2ccco2)c2nccc(-c3ccc4c(c3)OCO4)c12	3.6%	6.4%
COc1ccc(N2CCN(c3csc4ccccc4c3=O)CC2)cc1	53.3%[activator]	49.1%[activator]
COc1ccc(OC)c(CNC(=O)c2cnc(N(C)C)nc2)c1	-7.2%	-10.0%
O=C(COc1ccc(C2CCCCC2)cc1)Nc1ccc2oc(-c3ccncc3)nc2c1	-7.1%	2.5%
Cc1cccc(NC(=O)C2CCN(S(=O)(=O)c3c(C)noc3/C=C/c3ccco3)CC2)c1	-9.4%	-22.7%
COc1cc(Cl)c(C)cc1NC(=O)c1cc(=O)n2c(nc3ccccc32)s1	-20.6%	-11.8%

Whole records, quoted from the list.
COc1ccc(N2CCN(c3csc4ccccc4c3=O)CC2)cc1 as listed: StopGo RLuc: 53.3%[activator]; StopGo FLuc: 49.1%[activator]
O=C(COc1ccc(C2CCCCC2)cc1)Nc1ccc2oc(-c3ccncc3)nc2c1 as listed: StopGo RLuc: -7.1%; StopGo FLuc: 2.5%

Filtered by structure, the compounds so far with a furan ring, fused or not (two)
SMILES	StopGo RLuc	StopGo FLuc
O=c1[nH]c(=O)n(Cc2ccco2)c2nccc(-c3ccc4c(c3)OCO4)c12	3.6%	6.4%
Cc1cccc(NC(=O)C2CCN(S(=O)(=O)c3c(C)noc3/C=C/c3ccco3)CC2)c1	-9.4%	-22.7%

Arranged by length of the SMILES (descending): some entries from above
SMILES	StopGo RLuc	StopGo FLuc
Cc1cc(C)n(-c2ccc(C(=O)OCC(=O)NC(=O)NC3CCCCC3)cc2)n1	-11.9%	-5.8%
COc1cc(Cl)c(C)cc1NC(=O)c1cc(=O)n2c(nc3ccccc32)s1	-20.6%	-11.8%
CCC1CCC2(CC1)NC(=O)N(Cc1coc(-c3cccs3)n1)C2=O (stereo unspecified)	-2.7%	13.9%

(more compounds)
SMILES	StopGo RLuc	StopGo FLuc
CC(Sc1nc(CN2CCOCC2)nc2ccccc12)C(=O)NC1CCCCCC1 (stereo unspecified)	-10.7%	-13.2%
Cc1ccc(S(=O)(=O)N2CCN(C(=O)COC(=O)c3cccc4ccccc34)CC2)c(C)c1	-1.1%	23.9%
Cc1ccc(-c2cnc(CCC(=O)Nc3nc4ccccc4s3)o2)cc1C	-15.2%	16.7%
N#Cc1nc(COc2ccc(F)cc2)oc1NCc1ccc(F)cc1	4.9%	0.0%
CCC(=O)N1CCc2cc(S(=O)(=O)NC(CC(C)C)C(=O)NCCc3cccc(C)c3)ccc21 (stereo unspecified)	15.3%	-17.7%
O=C(CSc1nccn1Cc1ccccc1)NCc1ccc(F)cc1	1.3%	5.4%
Cc1cccc(N2CCN(C(=O)CN3CCSc4ccccc43)CC2C)c1 (stereo unspecified)	7.4%	12.2%
COc1ccc(C)cc1NC(=O)C(=O)NCCc1sc(-c2ccc(Cl)cc2)nc1C	-15.1%	34.4%[activator]
CC(=O)c1ccc(NC(=O)CSc2nccn2Cc2ccc3c(c2)OCO3)cc1	-0.9%	-0.2%
CC(=O)Nc1ccc(NC(=O)c2ccc(C#CC3(O)CCCCC3)cc2)cc1	20.4%	7.4%
Cc1ccc(-c2cnc(SCC(=O)Nc3cccc(F)c3)o2)cc1C	14.7%	78.2%[activator]
Cc1ccc(NC(=O)C(c2ccccc2)C2CCCC2)cc1C (stereo unspecified)	15.4%	12.3%
O=C(NC(c1ccccc1)c1ccc2c3c(cccc13)CC2)c1cccc(F)c1 (stereo unspecified)	-10.8%	-1.8%
COc1ccc(NC(=O)c2c(-c3ccc(C)cc3)nnc3ccccc23)cc1OC	6.2%	76.4%[activator]
COc1ccc(CC(=O)Nc2cc(-c3nc4cccnc4s3)ccc2C)cc1	-11.7%	7.6%
CCOc1ccccc1N(CC)C(=O)Nc1cn(C)c(=O)c2ccccc12	2.4%	2.2%
COc1ccc(OC)c(CN2C(=O)c3ccnn3CC2(C)c2nnnn2C2CCCC2)c1 (stereo unspecified)	16.2%	-9.0%
Cc1ccccc1OCCSc1nnc(-c2ccc([N+](=O)[O-])cc2)o1	-3.0%	-5.0%
CCC1CCc2c(sc(NC(=O)C3c4ccccc4Oc4ccccc43)c2C#N)C1 (stereo unspecified)	23.5%	11.6%
CCOC(=O)C1(C)C=C(Nc2ccc(C(C)=O)cc2)C(=O)N1c1ccc(C(C)=O)cc1 (stereo unspecified)	45.9%[activator]	31.2%
CN1CCN(c2oc(-c3ccc(C(C)(C)C)cc3)nc2C#N)CC1	-10.2%	1.4%
COc1ccc(CC(=O)NCCc2sc3nc(-c4ccc(OC)cc4)nn3c2C)cc1	20.1%	15.4%
CSc1ccc(/C=C2\CS(=O)(=O)c3c(F)cccc3C2=O)cc1	-4.1%	21.2%
CCc1nn(CCCN2CCN(c3cccc(Cl)c3)CC2)c(=O)n1CCOc1ccccc1	u	u
C=CCNC(=O)c1ccccc1NC(=O)c1cnc2ccccc2n1	9.9%	156.0%[activator]
CC(C)CC(=O)Nc1cccc(-c2nc3ccccc3o2)c1	27.6%	97.3%[activator]
Clc1ccc(N2CCN(c3ncnc4c3nc3n4CCCC3)CC2)cc1	-10.3%	u
CCCn1c(-c2cccc(Br)c2)nc2ccccc21	10.4%	56.2%[activator]
Cc1ccc(Nc2nc(-c3ccc(C)cc3C)cs2)cc1	13.3%	191.5%[activator]
COc1ccc2nc3sc(C(=O)Nc4ccccc4F)cc3cc2c1	-6.5%	70.6%[activator]
Cc1cc(Br)ccc1NC(=O)CN(C)Cc1nc2ccccc2o1	38.6%[activator]	37.2%[activator]
O=C(O)CCC(=O)C1CC(=O)OC1C(=O)O (stereo unspecified)	-8.2%	-5.3%
Cc1ccc(-n2c(=O)c3c(c4cc(C)ccc4n3C)n(CC(=O)Nc3c(C)cccc3C)c2=O)cc1	-10.3%	-14.9%
O=C(c1ccc(C#Cc2ccccc2)cc1)N1CCN(Cc2ccccc2)CC1	-6.3%	55.6%[activator]
COc1ccccc1OCc1nnc(-c2ccccc2)o1	9.2%	10.5%
COc1ccc(-c2cc(C(=O)NCC(C)C)c3ccccc3n2)cc1	30.6%[activator]	0.0%
O=C(COc1ccc(F)cc1)Nc1ccc(OCc2cc(=O)n3ccsc3n2)cc1	-13.4%	-10.0%
CS(=O)(=O)N(CC(=O)Nc1c(F)cccc1F)Cc1ccccc1	1.8%	2.4%
CC(O)Cn1c(N2CCN(c3ccccc3)CC2)nc2c1c(=O)[nH]c(=O)n2C (stereo unspecified)	-5.2%	6.3%
C/C(=N\Nc1c(Cl)cc(Cl)cc1Cl)c1ccc(Cl)cc1Cl	2.9%	9.1%
CCOc1ccc(Nc2oc(-c3ccc(Cl)cc3)nc2C#N)cc1	7.4%	139.7%[activator]
CCn1ccc2c(OCC(=O)Nc3ccc(C)c(Cl)c3)cccc2c1=O	1.4%	-19.3%
CC(=O)N[C@@H](C=O)[C@@H](O)[C@H](O)[C@H](O)CO	6.7%	2.3%
Cc1ccc2nc(-c3ccncc3)cc(C(=O)O)c2c1	-11.7%	12.4%
Cc1ccc(SCC(=O)Nc2ccc3oc(-c4cccc(Cl)c4)nc3c2)cc1	-4.1%	112.2%[activator]
Cc1cc(C)cc(N(CC(=O)Nc2ccc(C(F)(F)F)cc2)S(=O)(=O)c2c(C)[nH]c(=O)[nH]c2=O)c1	30.5%[activator]	-3.8%
COCCCNC(=O)C1CC(=O)N(CCc2c[nH]c3ccc(F)cc23)C1 (stereo unspecified)	-0.9%	7.9%
Cc1nc(Nc2nc(CSc3ccc(Cl)cc3)cc(=O)[nH]2)nc2c(C)cccc12	-10.8%	-7.8%
CCN(CC)c1ccc(NC(=O)c2cnc3c(-c4ccccc4)c(C)nn3c2C)c(C)c1	8.6%	-1.7%
CCOc1ccc(CCNC(=O)CS(=O)Cc2nc(-c3ccccc3C)oc2C)cc1OCC (stereo unspecified)	14.4%	-1.1%
Going on with the list.
SMILES	StopGo RLuc	StopGo FLuc
COc1ccccc1CNCCCO	11.4%	18.6%
CS(=O)(=O)N1CCc2cc(C(=O)NCCc3ccccc3)ccc21	u	166.0%[activator]
CCC(C)c1ccc(-c2ccc(-c3ccc(C(C)CC)cn3)cc2)nc1 (stereo unspecified)	-8.4%[1.06 µM]	37.2%[activator]
O=C(Nc1cnc2ccccc2c1)NC1CCCC1	-8.0%	75.7%[activator]
O=C(Nc1ccc(-c2nc3cc(Cl)ccc3o2)cc1)C(F)(F)F	8.2%	222.2%[activator]
CCCCC(=O)OCc1c(C(=O)OCC)sc(N)c1C#N	5.8%	0.1%
Cn1c(=O)oc2cc(S(=O)(=O)CCC(=O)N3CCN(c4cccc(Cl)c4)CC3)ccc21	-6.8%	-12.1%
NC(=O)c1ccc(NC(=O)C2CCN(S(=O)(=O)c3ccc4c(c3)CCC4)CC2)cc1	-1.0%	-6.3%
O=c1c2sc3ccccc3c2n(Cc2ccccc2)c(=O)n1Cc1ccccc1	-8.3%	u
COc1cc(OC)c(NC(=O)CSCc2nc(-c3ccc(OC)c(OC)c3)no2)cc1Cl	1.3%	-9.0%
CCC(O)c1cc2c(cc1NC(=O)c1cccc(Br)c1)OCCO2 (stereo unspecified)	14.5%	12.9%
CN(C)C(=O)c1ccc(OCc2coc(-c3ccccc3)n2)cc1	-19.7%	62.2%[activator]
Cc1ccccc1/C=C/c1ccc2ccccc2n1	15.5%	205.2%[activator]
Cc1cc2n(CC(O)COc3ccc(C(C)(C)C)cc3)c(=O)c3ccccc3n2n1 (stereo unspecified)	-7.6%	-0.4%
COc1ccc(Cn2ccn(Cc3cccc(Cl)c3)c(=O)c2=O)cc1	54.5%[activator]	23.3%
CCOc1ccc(CC(=O)Nc2c(C(=O)c3ccc(Cl)cc3)oc3ccccc23)cc1OCC	-12.4%	-22.4%
CCC1CCc2c(sc(NC(=O)c3cccc4ccccc34)c2C#N)C1 (stereo unspecified)	58.1%[activator]	0.0%
COCCCNC(=O)Nc1c(NC2CCCC2)c2ccccc2oc1=O	-7.9%	-6.2%
O=C(O)c1cccc(COc2ccc(Cl)cc2)c1	1.2%	u
COc1cc(Nc2nc3c(S(=O)(=O)c4ccc(C)c(C)c4)nnn3c3ccsc23)cc(OC)c1	-10.4%	-17.7%

The closing 2 entries of the part before lead into the next.
SMILES	StopGo RLuc	StopGo FLuc
O=C(O)c1cccc(COc2ccc(Cl)cc2)c1	1.2%	u
COc1cc(Nc2nc3c(S(=O)(=O)c4ccc(C)c(C)c4)nnn3c3ccsc23)cc(OC)c1	-10.4%	-17.7%
Clc1ccc(CNCCOc2ccccn2)cc1	-15.6%	0.0%
CCOc1nc(NC(=O)NS(=O)(=O)Oc2ccccc2)nc(-c2ccccc2)n1	-0.6%	115.4%[activator]
COc1ccc(CC(=O)N2CCc3c([nH]c4ccccc34)C2c2ccc(SC)cc2)cc1 (stereo unspecified)	-8.9%	-25.7%
CCN(CC)C(=O)Cn1c(=O)n(-c2ccc(Cl)cc2)c(=O)c2c3c(sc21)CCC3	-6.6%	-11.0%
CCOc1ccc(Cn2c(CNS(=O)(=O)c3ccc(C(C)(C)C)cc3)nc3cccnc32)cc1	231.3%[activator]	18.2%
COc1ccc(-n2nnnc2C2CCN(S(=O)(=O)c3cc(F)ccc3C)CC2)cc1	-8.3%	-7.3%
Cc1cccc(-c2nc3ccccc3c(=O)n2CCCN2CCOCC2)c1	1.6%	31.4%[activator]
N#C/C(=C/c1cccs1)c1ccc(C(F)(F)F)cn1	20.4%	120.9%[activator]
CN(Cc1ccc(C(=O)NCC(F)(F)F)cc1)c1nc2ccccc2o1	u	-14.4%
O=C(/C=C/c1ccc(Cl)cc1Cl)Nc1ccccc1C(F)(F)F	28.1%	108.2%[activator]
COc1ccc(Cn2c(SCc3ccc(C(=O)NCCc4ccccc4)cc3)nc3cccnc32)cc1	-1.5%	49.3%[activator]
O=S(=O)(NCCc1nnc2ccc(SCc3cccc(Cl)c3)nn12)c1ccccc1	131.8%[activator]	u
Cn1c(=O)c2cc(C(=O)N3CCN(c4cccc(C(F)(F)F)c4)CC3)sc2c2ccccc21	7.5%	-10.4%
CCS(=O)(=O)N1CCc2ccc(NC(=O)Nc3ccc(C)c(C)c3)cc21	4.47µM*	u
COc1ccc(-c2nc3cc(NC(=O)c4ccccc4Cl)ccc3o2)cc1OC	28.0%	5.8%
Cc1cccc2nc(-c3ccc(O)cc3)c(Nc3ccc4c(c3)OCCO4)n12	0.0%	0.0%
CC(C)Nc1nc(C(=O)Nc2nnc(C(C)C)s2)cs1	-10.0%	175.2%[activator]
COc1ccc(C(=O)NCC(c2cccs2)S(=O)(=O)c2ccc(F)c(C)c2)cc1 (stereo unspecified)	36.9%[activator]	38.0%[activator]
N#Cc1nc(-c2ccccc2Cl)oc1NCc1ccc(Cl)cc1	106.4%[activator]	186.0%[activator]
CC(C)C(C)NC(=O)COC(=O)c1cn(C)c2ccccc12 (stereo unspecified)	3.6%	2.3%
COc1ccc(S(=O)(=O)c2c(C(=O)c3ccc(C)c(C)c3)cnc3ccc(C)cc23)cc1	38.4%[activator]	-16.3%
Fc1ccc(CNc2ncnc3c2c(-c2ccccc2)cn3-c2ccccc2)cc1	-2.6%	-6.5%
Cc1c(C(=O)OC2CCCCCC2)[nH]c2c1C(=O)CC(c1ccc(N(C)C)cc1)C2 (stereo unspecified)	-0.8%	-2.3%
